# StopGo reporter: High Throughput Screening for Foot and Mouth Disease Virus Antivirals; human cells with a luciferase reporter of 2A StopGo recoding; control for the full effect not named in the record; Potency, µM (highest dose often 57.9 µM), for the others: top-dose signal change, negative = less light; 410,000 compounds, 1.2% hits; active = well fitted falling curve with a large enough effect; inconclusive = small, poorly fitted or top-dose-only effect; inactive = no such curve, though single readings can be large or run the other way; tested in HEK293T cells; also: nearly all actives have a fitted effect of over 45% in size; luciferase light after 4 h
# RE007 growth inh: qHTS Assay for Inhibitors of the HIV-1 protein Vpr; AID 651644, 2012; 360,000 compounds, 0.21% hits; Potency, µM (doses to about 92.2 µM), for the others: top-dose activity change, negative = less growth; S. pombe RE007 Vpr strain, BacTiter-Glo ATP luminescence, 24 h; control for the full effect not named in the record; active = well fitted falling curve with a large enough effect; inconclusive = small, poorly fitted or top-dose-only effect; inactive = no such curve, though single readings can be large or run the other way;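 also: nearly all actives have a fitted effect of over 50% in size; the assay follows cell death caused by Vpr and the record does not say whether a fall means rescue or toxicity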
#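 Fission yeast strain RE007, carrying one chromosomally integrated HIV-1 vpr copy, was seeded at OD 0.01 in PMG+AL medium with 23 nL pinned compound. After 24 h at 30 °C and 99% humidity, viability was read by BacTiter-Glo luminescence.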
# Active calls of the source: *; ? = inconclusive; [ ] = remark or other dose. % is scaled to controls: 0 for no effect and ±100 for the full control effect; potency is read from the fitted curve at half-maximal effect.
# Below each compound: StopGo reporter, RE007 growth inh
COc1ccc(-c2cc(NC=O)c3ncc(-c4cccc(C(=O)NCCN(C)C)c4)n3c2)cc1
→ -5%, 2%[18.4 µM]
O=C(Nc1ccc2c(c1)OCCO2)C(CCc1ccccc1)N1CCN(C/C=C/c2ccccc2)CC1 (stereo not drawn)
→ -14%, 1%
CCCCNC(=O)C1(C)CCN1C(=O)c1ccc(F)c(C)c1 (stereo not drawn)
→ -10%, 3%[18.4 µM]
Cc1nnc(Cc2ccccc2)c2n[nH]c(C)c12
→ 0%, -11%
COC(=O)[C@]12CCCCC=C1N(Cc1ccccc1)C(=O)[C@H](CC(=O)N1CCC(c3ccccc3)CC1)C2
→ -29%, 4%
CC1(C)CC(=O)C=C(c2ccccc2-c2ccc(S(C)(=O)=O)cc2)C1=O
→ -19%, -5%
CCCNC(=O)c1cc(C2CCCN(S(=O)(=O)c3ccccc3)C2)on1 (stereo not drawn)
→ -24%, 0%
c1csc(-c2ccc3nncn3c2)c1
→ -21%, 2%
COC(=O)[C@]12CCCCC=C1N(CCC1=CCCCC1)C(=O)[C@H](CC(=O)N1CCCC1)C2
→ -24%, 2%
Nc1ncnc(N)c1NC(=O)c1ccc(OCc2ccccc2)cc1
→ -20%, 9%
Cc1c(C(=O)NCc2ccccc2C(F)(F)F)sc(=O)n1Cc1ccc(S(=O)(=O)N(C)C)cc1
→ 0%, -4%[18.4 µM]
CC(=NOC(=O)c1ccc(Cl)cc1)c1nccs1
→ -14%, ?
CCCS(=O)(=O)NC(=O)C1(C)CCN(C(=O)COc2ccc(Cl)cc2Cl)C1 (stereo not drawn)
→ -24%, -2%
O=C(c1ccco1)N(Cc1cccnc1)C(c1ccccc1)c1nc2ccccc2[nH]1 (stereo not drawn)
→ 7%, -19%
COc1ccc(CNC(=O)COC(=O)c2cc(C)oc2C)cc1
→ -8%, 6%
CS(=O)(=O)c1ccc(CNC(=O)C2(C(F)(F)F)C/C(=C\Cc3ccccc3)CCCO2)cc1 (stereo not drawn)
→ -26%, 7%
CC1(C(=O)Nc2ccc(F)c(Cl)c2)Cc2c(-c3cccc(C(N)=O)c3)ccnc2O1 (stereo not drawn)
→ 0%, -1%[18.4 µM]
COc1ccccc1N(C(C)=O)C1=C(Cl)C(=O)c2ccccc2C1=O
→ ?, 13µM*
CC(C)C[C@H]1CN([C@@H](CC(C)C)CN2CCCC2CN2C(=S)NC[C@@H]2Cc2ccc(O)cc2)C(=S)N1CCc1ccccc1 (stereo partly drawn)
→ -20%, -8%
C=CCN1C(c2cccc(C(F)(F)F)c2)=CS/C1=C(\C#N)c1nnc(N2CCOCC2)n1-c1ccccc1
→ -19%, -6%
CSCCC(NC=O)C(=O)NC(C)C(=O)O (stereo not drawn)
→ -10%, 0%
CCOC(=O)C1=CCN(S(=O)(=O)c2ccc(F)cc2)C1c1ccc(Cl)c(Cl)c1 (stereo not drawn)
→ -25%, -2%
CN1CCN(C(=O)COc2ccc(S(=O)(=O)Nc3ccc(Cl)cc3)cc2)CC1
→ 27%, 9%
CC(C)(C)Cc1c(-c2cccc(Br)c2)nc2ccc(Cl)cn12
→ -7%, -11%
CCC(C)(CN(C)C)OC(=O)c1ccccc1 (stereo not drawn)
→ -23%, -6%
C[C@@H]1CN([C@H](C)CO)C(=O)CCCn2cc(nn2)CO[C@H]1CN(C)C(=O)Nc1cccc2ccccc12
→ -18%, -7%
Cc1ccc([C@@H]2CC(=O)[C@@H]3CN(S(=O)(=O)c4ccc(C)cc4)[C@H](c4ccccc4F)C[C@@H]3N2S(=O)(=O)c2ccc(Cl)cc2)cc1
→ -11%, 5%
CCCC(=O)N1CCCC1(C)C(=O)Nc1ccc(OC(F)F)cc1 (stereo not drawn)
→ -13%, -4%
Cc1ccccc1-c1cc2nc(Oc3cccc(F)c3)n(C)c(=O)c2s1
→ -19%, 1%[18.4 µM]
CCNc1nc(NC(C)(C)C)nc(SC)n1
→ 0%, -3%[18.4 µM]
Cc1ccc(CSC2=NCCN2S(=O)(=O)c2ccc(C)cc2)cc1
→ -22%, -4%
Cc1c(C(=O)OC(C)C)sc(NC(=O)c2cnccn2)c1C(=O)OC(C)C
→ 1%, -1%
Cc1nc2ccc(NC(=O)c3ccccc3)cc2c(=O)n1Cc1ccc(F)cc1
→ 28µM*, -9%
COc1cccc(CNc2nc(NCc3cccs3)nc3ccsc23)c1
→ -23%, ?
CC(C)C[C@@H](CN)NC(=O)c1nc[nH]c1C(=O)N[C@@H](CC(C)C)C(=O)CNC[C@H](C)NC(=O)c1nc[nH]c1C(=O)N[C@@H](CC(=O)O)C(=O)O
→ -17%, -4%
CN(C)CCCNc1nc2cc(-c3ccn[nH]3)sc2c(=O)n1C
→ 7%, -5%
CN(C)c1ccc(-c2ccnc3c2CC(C)(C(=O)Nc2cccc(OC(F)(F)F)c2)O3)cc1 (stereo not drawn)
→ -3%, -11%
Cc1cn([C@H]2C[C@H](O)[C@@H](CNC(=O)[C@@H]3CCCN3Cc3ccccc3)O2)c(=O)[nH]c1=O
→ -28%, 3%
CN(C)C1CN(Cc2cn(Cc3ccc(F)cc3)nn2)S(=O)(=O)C1 (stereo not drawn)
→ -14%, -11%
Cn1nccc1-c1coc2c(C(=O)NCC3CCOCC3)cccc12
→ -13%, -8%
CC(C)CC1NC(=O)c2cccnc2-n2c1nc1cc(F)c(F)cc1c2=O (stereo not drawn)
→ ?, -2%
Cc1cccc(C)c1NC(=O)CN1CCN(C/C=C/c2ccccc2)CC1
→ -11%, 3%
C[C@H](O)[C@@H]1C(=O)N2CCc3c([nH]c4ccccc34)[C@@H]2C[C@@H]1N(C)C(=O)Nc1ccc(F)cc1
→ -23%, -3%
O=C(Cn1nnc(-c2ccc(Cl)cc2)n1)NC(=O)NC1CCCC1
→ -5%, 11%
Cc1ccc(C)c2c1CCCC2=O
→ 0%, 16%
Cc1ccc(S(=O)(=O)NC(=O)C2(C)CCN2C(=O)c2ccccc2CCc2ccccc2)nc1 (stereo not drawn)
→ -22%, 5%[18.4 µM]
CC(C)(C)Cc1c(-c2ccc(F)cc2)nc2ccc(Br)cn12
→ -28%, 17%
OC(c1cc(Cl)cc(Cl)c1)c1ncc(-c2ccccc2F)[nH]1 (stereo not drawn)
→ 60%[activator], ?
O=C1[C@H]2[C@@H](c3ccc(C(F)(F)F)cc3)N[C@]3(CCCN(Cc4ccco4)C3=O)[C@H]2C(=O)N1Cc1ccccc1
→ 0%, 36%
COc1ccc(C(=O)N/C(=C\c2ccc(Cl)cc2)C(=O)NCCN2CCOCC2)cc1
→ 1%, 3%
CCOC(=O)[C@]12CCC=C1N(Cc1cccc3ccccc13)C(=O)[C@H](CC(=O)NCc1ccccc1)C2
→ -9%, -10%
Cc1cccc(C)c1-n1nnnc1C(c1cccc2ccccc12)N1CCN(C/C=C/c2ccccc2)CC1 (stereo not drawn)
→ -20%, -17%
CCCC(=O)N1CCC1(C)C(=O)Nc1ccc2nc(C)ccc2c1 (stereo not drawn)
→ -5%, -15%
COc1ccc(-c2noc(CN(C)C(=O)CCCN3C(=O)[C@H]4CC=CC[C@H]4C3=O)n2)cc1
→ ?, -15%
COc1cccc(C(O)c2ncc(-c3cccc4ccccc34)[nH]2)c1 (stereo not drawn)
→ -8%, -10%
CC1(C2CC2)NC(=O)N(CC(=O)N2CCN(c3ccccc3F)CC2)C1=O (stereo not drawn)
→ -9%, -10%
CS(=O)(=O)N1CCCCC1c1cc(C(=O)Nc2cccc(C#N)c2)no1 (stereo not drawn)
→ 19%, -3%
COCCN1C[C@@H](CO)O[C@@H](n2cnc3c(NCc4ccc(F)cc4)ncnc32)C1
→ -24%, 6%
CCCc1nc2c(C)cc(Br)cn2c1Cc1ccsc1
→ 8%, ?
Cc1cccc(NC(=O)CSc2nncn2N)c1C
→ -10%, 15%

# A different layout for part of the listing above:
SMILES	StopGo reporter	RE007 growth inh
Cc1ccc(S(=O)(=O)NC(=O)C2(C)CCN2C(=O)c2ccccc2CCc2ccccc2)nc1 (stereo not drawn)	-22%	5%[18.4 µM]
CC(C)(C)Cc1c(-c2ccc(F)cc2)nc2ccc(Br)cn12	-28%	17%
OC(c1cc(Cl)cc(Cl)c1)c1ncc(-c2ccccc2F)[nH]1 (stereo not drawn)	60%[activator]	?
O=C1[C@H]2[C@@H](c3ccc(C(F)(F)F)cc3)N[C@]3(CCCN(Cc4ccco4)C3=O)[C@H]2C(=O)N1Cc1ccccc1	0%	36%
COc1ccc(C(=O)N/C(=C\c2ccc(Cl)cc2)C(=O)NCCN2CCOCC2)cc1	1%	3%

# Other records follow:
# Below each compound: StopGo reporter, RE007 growth inh
Cc1ccc(-c2nc3c(Cl)cc(C(F)(F)F)cn3c2Cc2cccc(Cl)c2)cc1
→ -16%, 3%
c1ccc(COc2cccc(-c3cc4nc(NCCCn5ccnc5)ccn4n3)c2)cc1
→ -12%, -30%[18.4 µM]
CC[C@H]1CN2CCC1C[C@@H]2[C@H](O)c1ccnc2ccc(OC)cc12 (stereo partly drawn)
→ -26%, -8%
COc1ccc(-n2nnnc2C(C2CC2)N2CCC3(CC2)C(=O)NCN3c2ccccc2)cc1 (stereo not drawn)
→ -6%, 6%
CCOC(=O)C(C(=O)OCC)C(=O)c1cccc2ccc3ccccc3c12
→ 0%, -20%
COc1ccc(-c2ccc(C(=O)Nc3cccc(C(F)(F)F)c3)c3occc23)c(C)c1
→ -5%, -19%[18.4 µM]
Cn1c2c(c(=O)n(C)c1=O)C(c1ccc(C(F)(F)F)cc1)CC(=O)N2 (stereo not drawn)
→ -10%, -3%
CC(C)COC(=O)N1CCCCC1c1cc(C(=O)NCc2ccc(F)cc2)no1 (stereo not drawn)
→ -13%, -4%
Cc1cc(C)nc(Nc2nc(C(N)Cc3ccc(C(F)(F)F)cc3)cs2)n1 (stereo not drawn)
→ 0%, -7%
CC(C)(C)OC(=O)N(CCc1ccccc1)Cc1cccc(OCc2cccc(NC(=O)c3ccccc3)c2)c1
→ -15%, -17%
COc1cc(OC)c(NC(=O)CC2SC(N)=NC2=O)cc1Cl (stereo not drawn)
→ -2%, 15%
COc1ccc(CN2C(=O)c3ccccc3C2c2nnnn2-c2ccc3c(c2)OCCO3)cc1OC (stereo not drawn)
→ -16%, -1%
CCc1ccc([C@@H]2C[C@H]3[C@@H](CN2S(=O)(=O)c2ccc(C)cc2)C(=O)C[C@@H](c2ccc(Cl)cc2)N3S(=O)(=O)c2ccc(C)cc2)cc1
→ -3%, -7%
O=C(Nc1ccc2c(c1)OCO2)c1cc(C2CCCCN2C(=O)CCCc2ccccc2)on1 (stereo not drawn)
→ -8%, 6%
O=C1c2ccccc2C(c2nnnn2-c2ccc3c(c2)OCCO3)N1Cc1cccnc1 (stereo not drawn)
→ -3%, 5%
COc1cc(C(=O)N2CCCCC2c2cc(C(=O)Nc3ccccc3Cl)no2)cc(OC)c1C (stereo not drawn)
→ -5%, 0%
CC(=O)c1cc2c(cc1NC(=O)CSc1nnc(C3CC3)n1C)OCO2
→ -3%, -2%
O=C1NC[C@H](CCCCN2C[C@H](Cc3ccc(O)cc3)N(CCc3ccc(O)cc3)C(=O)C2=O)N(CCc2ccccc2)C1=O
→ -14%, 7%
CCOC(=O)[C@]12CCCC=C1N(Cc1ccco1)C(=O)[C@H](CC(=O)NCc1ccccc1)C2
→ -8%, 0%
c1csc(CNc2ccn3nc(-c4ccc(OCCN5CCOCC5)cc4)cc3n2)c1
→ 1%, -7%[18.4 µM]

# A different layout for part of the listing above.
compound | StopGo reporter | RE007 growth inh
Cc1cccc(C)c1NC(=O)CN1CCN(C/C=C/c2ccccc2)CC1 | -11% | 3%
O=C(Cn1nnc(-c2ccc(Cl)cc2)n1)NC(=O)NC1CCCC1 | -5% | 11%

# Carrying on.
# Below each compound: StopGo reporter, RE007 growth inh
Nc1nc(Cl)nc2c1ncn2C1CCC(CO)O1 (stereo not drawn)
→ -12%, -1%
Cc1ccc(S(=O)(=O)/C=C2\OCc3ccccc32)cc1
→ 35%[activator], -1%
Cc1nc2c(OCCOc3ccccc3)cccn2c1N(C)C(=O)CCC1CCCC1
→ ?, 6%[18.4 µM]
C[C@H](CO)N1C[C@H](C)[C@@H](CN(C)S(=O)(=O)c2ccc3ccccc3c2)OCc2cn(nn2)CCCC1=O
→ 13%, -25%
COC(=O)C1=CN(c2ccc(N3CCOCC3)cc2)C(N)=C(C#N)C1c1ccccc1 (stereo not drawn)
→ ?, -20%
COc1ccc(CCN2C(=O)CSCC2(C)C(=O)Nc2ccc3c(c2)OCCO3)cc1OC (stereo not drawn)
→ -2%, -10%
COc1cccc(-c2cc3nc(NCc4ccccc4OC)n(C)c(=O)c3s2)c1
→ ?, 2%
O=C(NCc1ccc(F)cc1)c1cc(C2CCCCN2S(=O)(=O)c2ccc(F)cc2F)on1 (stereo not drawn)
→ -24%, 6%
Brc1cccc(-c2nc3ccc(Br)cn3c2Cc2ccsc2)c1
→ 28%, -20%
CC(C)c1ccc(NC(=O)Nc2nc(C(N)C(C)C)cs2)cc1 (stereo not drawn)
→ -21%, -3%
Cc1ccc(CNC(=O)/C=C/[C@H]2O[C@@H](n3cc(C)c(=O)[nH]c3=O)C[C@@H]2O)o1
→ -7%, 15%
Nc1ccc(-c2cc(NC=O)c3ncc(-c4cccc(C(F)(F)F)c4)n3c2)cn1
→ ?, -15%
O=C(NCc1ccccc1)c1ccc(NC(=O)C2CCC2)cc1
→ 24%, 3%
Cc1ccc(CNC(=O)OC2CC3CC2[C@H]2CCCCN2C3=O)cc1 (stereo partly drawn)
→ -18%, -1%

# Screens from PubChem BioAssay.

# An excerpt; the hit share may differ from the screen's.
